Screens: PubChem BioAssay, Johns Hopkins Ion Channel Center
KCNQ2 pot = potentiators of rat KCNQ2 potassium channel; CHO-K1 KCNQ2, FluxOR thallium flux fluorescence; active compounds read high; B-score at 10 µM; 310,000 tested, 0.54% active;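 active = fluorescence ratio B-score at least 3 SD of library B-scores, with initial fluorescence B-score within 3 SD, cut at about 5.3 in these data; same plate scores as AID 2156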;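 note: B-score of peak minus minimum over baseline fluorescence ratio after K+ and Tl+ stimulus; positive B-score means potentiation of KCNQ2 with more thallium influx and brighter signal; only the inactives scoring about 0 or higher are listed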
Target sequence (O88943 whole entry, looked up): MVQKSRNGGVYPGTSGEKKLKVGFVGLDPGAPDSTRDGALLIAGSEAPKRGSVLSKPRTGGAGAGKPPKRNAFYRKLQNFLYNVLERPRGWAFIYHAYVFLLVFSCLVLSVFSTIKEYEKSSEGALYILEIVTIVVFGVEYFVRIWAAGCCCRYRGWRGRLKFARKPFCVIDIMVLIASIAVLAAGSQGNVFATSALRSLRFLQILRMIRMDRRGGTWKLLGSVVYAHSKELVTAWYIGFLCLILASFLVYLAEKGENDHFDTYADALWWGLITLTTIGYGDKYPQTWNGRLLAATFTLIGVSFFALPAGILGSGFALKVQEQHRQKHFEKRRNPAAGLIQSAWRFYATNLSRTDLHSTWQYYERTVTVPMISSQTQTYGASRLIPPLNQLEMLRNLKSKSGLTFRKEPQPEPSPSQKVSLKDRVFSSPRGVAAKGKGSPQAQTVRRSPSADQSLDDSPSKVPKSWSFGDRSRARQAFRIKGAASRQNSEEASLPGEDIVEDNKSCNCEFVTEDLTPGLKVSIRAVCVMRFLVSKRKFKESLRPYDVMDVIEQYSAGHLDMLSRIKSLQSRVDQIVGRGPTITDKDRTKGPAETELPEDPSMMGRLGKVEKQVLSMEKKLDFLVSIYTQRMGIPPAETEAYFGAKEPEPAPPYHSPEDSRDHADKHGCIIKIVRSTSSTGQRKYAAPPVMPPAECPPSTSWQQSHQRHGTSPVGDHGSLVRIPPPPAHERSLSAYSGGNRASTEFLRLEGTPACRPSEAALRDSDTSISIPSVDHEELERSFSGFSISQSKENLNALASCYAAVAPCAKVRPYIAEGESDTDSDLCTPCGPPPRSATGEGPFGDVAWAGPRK
KCNQ2 pot baseline = further read-out of KCNQ2 pot, marked with its call; B-score; compound at 10 µM; measured here: initial fluorescence intensity artifact check;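 brightness before thallium and not channel activity; 0 = typical well and far values either way flag optical interference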
Starred values were filed as active, the others as inactive. Not all compounds are listed, so the mix of outcomes need not match the whole.

SMILES	KCNQ2 pot	KCNQ2 pot baseline
CCCCc1c(O)nc(SCC(=O)NC(C)(C)C)n(-c2ccccc2C)c1=O	0.47	0.03
O=C(O)c1cccnc1SC1CC(=O)N(c2ccc(OC(F)F)cc2)C1=O (configuration not stated)	0.39	-0.56
CC(C)c1nnc(NC(=O)CN(C)S(=O)(=O)c2ccc3c(c2)OCCO3)s1	0.35	-0.54
COc1ccc(C(O)c2nccn2C)cc1 (configuration not stated)	1	-0.35
COc1cc(C(=O)NCCc2ccc(F)cc2)ccc1OCC(=O)N1CCOCC1	0.66	-0.8
COc1c(Cl)cc(C(=O)NN)cc1Cl	0.14	-0.21
COc1ccc(N2CCN(CCNC(=O)C3CCN(S(=O)(=O)c4cccs4)CC3)CC2)cc1	1.3	0.21
CS(=O)(=O)Nc1cccc(C2=NN(C(=O)c3ccc(F)cc3)C(c3cccs3)C2)c1 (configuration not stated)	1.3	-0.7
C=CCN1C(=O)C2(OCCO2)c2cc(C)ccc21	0.11	0.29
CC1(C)CCCC2=C1CC1C(=O)N(c3ccccc3)C(=O)C1C2 (configuration not stated)	0.67	1.2
COc1ccc(CCNC(=O)[C@@H](NC(=O)c2ccccc2F)C(C)C)cc1OC	0.58	2.4
O=C(NCCN1CCOCC1)C(=O)NCC1CCCO1 (configuration not stated)	0.78	-2.4
Cc1cccc(CN2CCC(n3nccc3NC(=O)CCCc3ccccc3)CC2)n1	0.8	-0.67
CCN(c1ccccc1)S(=O)(=O)c1ccc(C(=O)N2CC(C)CC(C)C2)cc1 (configuration not stated)	0.48	-0.03
CCCc1cc(C(=O)NCc2cccnc2)no1	1.4	-0.34
O=C(/C=C/c1ccccc1)NCc1cccnc1	0.43	1.3
CCOC(=O)c1cc(-c2cc3ccccc3o2)n[nH]1	0.07	-0.37
CCC(C)NC(=O)c1cnn2c(C)c3c(nc12)CCCC3 (configuration not stated)	1.6	1.1
CC1CN(C(=S)Nc2cccc([N+](=O)[O-])c2)CC(C)O1 (configuration not stated)	1.1	-0.35
Cc1cc(C)c2nc(C)cc(Nc3ccc(C(=O)N4CCOCC4)cc3)c2c1	0.75	0.17
COc1ccc(NC(=O)c2nc3ccccc3s2)cc1	0.12	0.26
CCc1cccc2c3c([nH]c12)C(CC)(CC(=O)O)OCC3 (configuration not stated)	0.28	1.8
Cn1cc(CN2CCC(n3nccc3NC(=O)CCOc3ccccc3)CC2)cn1	0.66	-0.36
CCCCc1nc2ccccc2c(C(=O)O)c1C	0.82	0.47
CNC(=O)c1c(NC(=O)c2ccco2)sc2c1CCCC2	0.52	-0.33
c1ccc(-c2nnc(-c3ccncc3)o2)cc1	0.15	-0.03
CSCCC(NC(=O)c1ccc([N+](=O)[O-])cc1Cl)C(=O)OCC(=O)N(C)C (configuration not stated)	1.1	0.05
CC(C)(C)C(=O)C(Cl)C(=O)Nc1ccccc1 (configuration not stated)	1.7	0.14
CCCC(=O)n1nc(-c2ccccc2)nc1N	2.5	-0.54
COc1ccc(-n2c(COc3ccc4ccccc4c3)nnc2SCC(=O)NCc2ccco2)cc1	1.1	0.48
O=C(O)c1ccc2oc(SCC(=O)N3CCCCC3)nc2c1	1.6	-2.1
CCOc1ccccc1NC(=O)C1CCN(c2ccc(S(=O)(=O)N3CCCC3)cc2)CC1	1.4	4.1
FC(F)(F)c1cccc(Oc2cc(C(F)(F)F)nc(-c3ccccn3)n2)c1	0.05	4.5
Cc1nc2sc(-c3ccccc3)cc2c(=O)n1N	0.95	0.87
S=C(Nc1ccc2c(c1)OCO2)N1CCCC1	1.1	-0.47
COc1cc(/C=C2/SC(=S)N(CC(=O)Nc3cccnc3)C2=O)cc(OC)c1OC	0.03	0.91
O=C(Cc1csc(-c2ccccc2)n1)Nc1ccc(C(F)(F)F)cc1	0.06	0.94
Cc1c(CC(=O)N2CCN(C(=O)C3COc4ccccc4O3)CC2)c(=O)oc2cc(O)c(Cl)cc12 (configuration not stated)	0.67	0.64
CCOc1cc(C(=S)N2CCOCC2)ccc1OC(=O)c1ccccc1	0.86	-0.98
OCc1cn(-c2ccc(Cl)cc2)nn1	0.56	0.48
O=C(Nc1nncs1)C1COc2ccccc2O1 (configuration not stated)	0.72	0.06
Cc1nc2ccccc2c(=O)n1NC(=O)/C=C/c1ccccc1Cl	1.1	0.83
Cc1c(C(=O)NC2CCCCC2)oc2ccccc12	0.54	0.02
COc1cc2ccccc2cc1C(=O)N1CCCC1	0.56	-0.5
CCOc1ccc(N2C(=O)C3C4C=CC(CC4)C3C2=O)c([N+](=O)[O-])c1 (configuration not stated)	0.85	-0.86
CCN1CCCC1CN(Cc1cc2ccc(C)c(C)c2[nH]c1=O)C(=O)Nc1ccccc1OC (configuration not stated)	1.1	0.51
Cc1ccccc1NC(=O)Cc1nnc(SCC(=O)NC2CCCC2)n1C	1.1	-0.9
COc1ccc(NC2CCCN(C(=O)CCOc3ccccc3)C2)cc1 (configuration not stated)	0.27	0.68
Nc1cc(N)nc(SCC(=O)Nc2ccc3c(c2)OCCCO3)n1	0.55	-0.37
CN(C(=O)c1ccncc1)C1CCS(=O)(=O)C1 (configuration not stated)	0.54	0.08
COc1ccc(C(=O)Oc2ccc3ccc(=O)oc3c2)cc1	1.1	0.75
O=C(OCCN1CCOCC1)c1cccnc1	0.84	-0.23
CCOC(=O)N1CCN(CC(O)COc2ccc3c(c2)CCC3)CC1 (configuration not stated)	0.11	0.05
C(=N\Nc1nc(N2CCCC2)nc(N2CCCC2)n1)/c1ccncc1	1.3	-0.25
O=C(Nc1cccs1)Nc1ccccc1Br	0.85	1.5
Nc1nnc(CC(=O)NCc2ccccc2)s1	1.2	1.5
COc1ccc(C(=O)Nc2ccc(C(=O)O)cc2NC(=O)c2ccc(OC)cc2)cc1	1.7	-0.67
O=C(CN1CCOCC1)NC1C2CC3CC(C2)CC1C3 (configuration not stated)	0.42	1.9
CCn1nnnc1SCC(=O)NNC(=O)C1CCCCC1	0.36	0.75
Cc1ccc(NC(=O)c2ccc(CSc3ncnc4nc[nH]c34)cc2)c(C)c1	1.4	-1.1

Next section.
SMILES	KCNQ2 pot	KCNQ2 pot baseline
Cc1ccc(SCCc2ccc(C)nc2)cc1	0.88	-0.95
CCCNC(=S)NC1CC2CCCC(C1)N2CC(C)C (configuration not stated)	0.41	0.53
Cc1cc(C(=O)NCc2nc(-c3ccccc3)no2)ccc1[N+](=O)[O-]	1.5	-0.31
CCOC1(OCC)N=C(N)C2(C#N)C(c3cccc(OC)c3OC)C12C#N (configuration not stated)	1.7	0.54
C=CCC1(O)C(=O)N2C(=C1C(=O)N1CCOCC1)c1ccccc1CC2(C)C (configuration not stated)	0.67	0.07
CCOc1ccc2[nH]c(=O)c(CN(Cc3ccccc3)C(=O)N3CCCC3)cc2c1	1.4	-1.2
CC(C)=CCN1CCN(Cc2c(C)nn(C)c2Cl)CC1CCO (configuration not stated)	0.39	-1.3
C=CCn1c(CCNC(=O)c2ccccc2F)nnc1SCC(=O)Nc1nc2ccccc2s1	0.05	1.1
O=C(N/N=C/c1ccncc1)c1cccc(N/N=C/c2ccncc2)c1	1.3	-1.5
CN(C)c1cc[n+](CC(=O)Nc2ccc([N+](=O)[O-])cc2Cl)cc1	0.91	-1.3
CN(C)CCn1nnc2c(=O)oc3ccccc3c21	0.71	0.75
Cc1cccc(OCC(=O)Nc2nonc2NC(=O)COc2cccc(C)c2)c1	0.12	-2.5
O=C1CCCN2N=C(SCC(=O)Nc3cccc(F)c3)SC2=N1	0.01	0
CCOC(=O)N/N=C/c1cn(Cc2ccc(Cl)cc2)c2ccccc12	0.12	-1.7
O=C(O)c1ccc2c(c1)nnn2C1CCCCC1	1.6	-0.43
O=C(CCC1CCCC1)N1CCN(C(=O)c2ccco2)CC1	1.7	-0.27
C=CCN1C(=O)N(c2ccc(F)cc2)C(=O)C1CC(=O)Nc1ccc(Cl)cc1 (configuration not stated)	0.17	-1.2
Clc1ccc(OCCCCCN2CCCC2)c(Br)c1	1.2	-1.4
N/C(=N/OC(=O)c1ccccc1Cl)c1ncc([N+](=O)[O-])s1	0.8	0.88
CC(/C=C/c1ccc2c(c1)OCO2)=N/NC(=O)c1cccnc1	0.01	1.1
Cc1ccc(CC(=O)Nc2ccccc2-c2ccccc2)cc1C	1.7	0.4
Cn1cccc1-c1nc2ccc(NC(=O)c3ccc([N+](=O)[O-])cc3)cc2[nH]1	0.41	0.09
O=C(NCc1ccco1)C(=O)NCC(c1ccco1)N1CCOCC1 (configuration not stated)	0.66	-0.35
c1ccc(CSc2nnc(Cc3ccccn3)o2)cc1	1.2	-2.2
Cc1cc(Br)ccc1SCC(=O)OCC(=O)NC1CCCC1	2.1	-0.65
CCOC(=O)c1ccc(N2CSC3=C(C#N)C(c4ccc(OC)cc4OC)CC(=O)N3C2)cc1 (configuration not stated)	2.4	-1.6
COc1ccc(CCNC(=O)CCCCCNC(=O)N2CCn3c2nc2ccccc23)cc1OC	1.4	-0.36
Cc1cc(/C=N/NC(=O)c2ccccn2)c(C)n1-c1cccc([N+](=O)[O-])c1	0.9	-1.2
COc1ccccc1NC(=O)/C=C1\NC(=O)CS1	0.63	-2.3
CC(=O)c1cc(C#N)c(NCc2cc(-c3ccccc3)no2)nc1C	1.4	-0.94
Cc1ccc2c(c1)N(CC(=O)NCCCN1CC(C)CC(C)C1)C(=O)c1cccnc1O2 (configuration not stated)	1.9	-1.5
C/C(CC(=O)Nc1cc(Cl)ccc1C)=N\NC(N)=O	0.18	0.79
Cc1ccc(C(=O)NCC(=O)N2CCCCCC2)cc1	0.94	1.8
CCOc1ccc(-c2c(C)sc3nc[nH]c(=O)c23)cc1	1.9	0.07
Cc1ccnc2c(N3C(=O)C4C5C=CC(C5)C4C3=O)cccc12 (configuration not stated)	0.82	0.43
Cc1ccc(C(=O)Nc2cccc(C(=O)N3CCOCC3)c2)cc1Cl	2.8	-0.07
CCOC(=O)C1=C(N)OC2=C(C(=O)CC(C)(C)C2)C1c1ccoc1 (configuration not stated)	0.89	0.49
CCN(CC)S(=O)(=O)c1ccc(S(=O)(=O)N2CCC(N3CCCCC3)CC2)cc1	0.05	2.5
C=C(C)C(=O)Nc1cccc(C(C)=O)c1	1.2	-0.15
O=C1CSC(c2cccc(F)c2)N1c1ccccc1 (configuration not stated)	0.01	0.65
COc1ccc(/C(C)=N\n2cnnc2)cc1	1.2	-0.63
O=C1CCCC2=C1C(c1cccs1)CC(=O)N2c1ccc(F)cc1 (configuration not stated)	3.2	0.51
COCc1nnc(NC(=O)C2CC(=O)N(c3ccc(C)c(Cl)c3)C2)s1 (configuration not stated)	1.5	0.22
COc1c(C)cc(C(=O)C2CCCN(Cc3cccc4nccnc34)C2)cc1C (configuration not stated)	0.24	-0.07
O=C(COc1cccnc1[N+](=O)[O-])NCc1ccco1	0.23	-0.03
CN(CCc1cnn(C)c1)Cc1cn(C)nc1-c1ccccc1F	0.67	-0.85
CCc1cccc2c(C(=O)COC(=O)C3=NNC(=O)CC3)c[nH]c12	0.49	0.84
Cc1ccc(COc2ccc(S(=O)(=O)N3CCCC3)cc2C(N)=O)cc1	3	-0.21
Cc1ccc(C(O)CN2C3=NCCN3c3ccccc32)cc1 (configuration not stated)	0.33	1.6
CCOC(=O)C1=C(C)NC2=C(C(=O)CCC2)C1c1coc2ccccc2c1=O (configuration not stated)	0.4	-2.2
Fc1ccccc1CNC(=S)Nc1ccc(Cl)cc1	7.5*	-0.07*
O=[N+]([O-])c1ccc(NC(=S)NCCc2ccc(F)cc2)cc1	2.4	-2.3
CCCNC(=O)NC(C)C12CC3CC(CC(C3)C1)C2 (configuration not stated)	0.01	0.02
Cc1ccc(SCc2nnc(NC(=O)c3ccccc3)s2)cc1	0.35	2.6
O=C(Nc1cc2c3c(c1)CC(=O)N3CCC2)c1c(F)cccc1F	2.3	0.86
CCC1CCCCN1CCCNC(=O)CCCOc1cc(=O)n(C)c2ccccc12 (configuration not stated)	0.2	-1.5
